Bioassay records (PubChem BioAssay)
VACV Venus inh: inhibitors of vaccinia virus (Venus reporter); hit rate 0.46% among 330,000; AID 720580; Vaccinia virus Venus reporter expression, fluorescence; Potency, µM (titrated, usually from 36.5 µM), for the others: at the highest dose activity change, negative = inhibition, hits mostly inhibitors; active means well fitted inhibition curve with a large enough effect; inconclusive means small, poorly fitted or top-dose-only effect; inactive means no such curve, though single readings can be large or run the other way; tested in A549 cells; further: nearly all actives have a fitted effect of over 30% in size; inactives centre near -10
Vaccinia mCherry: inhibitors of vaccinia virus infection (mCherry reporter signal) | AID 720579 | Potency, µM (doses to about 36.5 µM), for inactives: at the top dose activity change, negative = inhibition, hits mostly inhibitors | Vaccinia virus mCherry reporter infection, fluorescence; about a quarter of the inactives have no number | hit rate 0.63% among 310,000; active = well fitted inhibition curve with a large enough effect; inconclusive = small, poorly fitted or top-dose-only effect; inactive = no such curve, though single readings can be large or run the other way; tested in A549 cells; further: nearly all actives have a fitted effect of over 35% in size; inactives centre near -10
Active calls of the source: *; i = inactive; ? = inconclusive; · = no result given; & = joins results of further samples; [ ] = remark or other dose. On the % scale 0 is the no-effect control and ±100 the full control effect; potency means the concentration at half of the fitted maximal effect.

SMILES | VACV Venus inh | Vaccinia mCherry
CN(c1ccccc1)S(=O)(=O)c1ccc(C(=O)NCc2cccs2)cc1 | -6.3% | -8.7%
C[C@@H](NC(=O)c1[nH]cnc1C(=O)Nc1ccccc1)c1ccccc1 | ? | -24.8%
CCn1c(N2CCN(S(=O)(=O)c3ccccc3C(F)(F)F)CC2)nc2ccccc21 | -25.7% | -25.1%
CCOc1ccc(CCNS(=O)(=O)c2ccc3c(c2)NC(=O)CO3)cc1OCC | 0.0%[7.34 µM] | -5.4%[7.34 µM]
CCCC(=O)N1CCC1(C)C(=O)Nc1ccc2c(c1)OCCO2 (stereo unspecified) | -0.7% | i
Cc1cc(C)n(-c2cc(O)c(-n3nc(C)cc3C)cc2O)n1 | -17.4% | -10.5%
Cn1cc(S(=O)(=O)NCc2cccs2)c(=O)n(C)c1=O | -1.7% | i
Cc1ccc(NC(=O)CSc2ncnc3ccccc23)cc1S(=O)(=O)N1CCOCC1 | -18.3% | ?
Cc1ccc(C)c2nc(Cl)c(C#N)cc12 | -2.1% | 12.6%
CCc1nnc(NC(=O)C2CCCN2S(=O)(=O)c2ccccc2)s1 (stereo unspecified) | -4.4% | -7.5%
CC(C)C(OC(=O)CCC(=O)Nc1nccs1)C(=O)NC1CCCCC1 (stereo unspecified) | -11.1% | -3.7%
O=C(c1cc(F)ccc1F)C1CCCN(CCCc2ccccc2)C1 (stereo unspecified) | 0.8% | -14.5%
CN(C)C(=O)c1cccc(-c2cnc3c(NC=O)cc(-c4ccc(C(=O)N5CCOCC5)cc4)cn23)c1 | -6.4% | i
COC(=O)c1cn(NC(=O)Cc2ccc(Cl)cc2)c(=O)c2ccccc12 | -3.6% | i
CS(=O)(=O)c1ncc(Cl)c(C(=O)Nc2ccc(OC(F)F)cc2)n1 | ? | ?
CCn1cc(CNC(=O)c2ccc(Cl)c([N+](=O)[O-])c2)c(C)n1 | -6.4% | -15.0%
Cc1ccc(Cn2cccc(C(=O)Nc3nnc(C)s3)c2=O)cc1 | -27.3% | -33.3%
Cc1cc(NC(=O)COC(=O)c2cccc(S(=O)(=O)N(C)C3CCCCC3)c2)no1 | -1.2% | i
CC(=O)c1ccc(N(C(=O)CNC(=O)c2ccco2)C(C(=O)NCC2CCCO2)c2ccccc2)cc1 (stereo unspecified) | 6.1% | i
COc1ccc2c(C)cc(N3CCCCCC3)nc2c1 | -9.9% | -0.2%
Cc1ccc(CNC(=O)c2ccc(N3CCC4(CC3)CC(c3ccccc3)=NO4)c(NC(=O)c3ccc(Br)cc3)c2)cc1 | -0.3% | i
CC(=O)Nc1ccc(NC(=O)CCCc2ccccc2)cc1 | -10.9% | -1.3%
O=C1CN(C(=O)CSc2nnc(-c3ccccc3)n2Cc2ccc3c(c2)OCO3)c2ccccc2N1 | -18.3% | -23.5%
COc1ccc(Cl)cc1NC(=O)CN(c1cccc(C)c1C)S(=O)(=O)c1ccccc1 | -18.6% | -17.0%
O=C(CN1CCOc2ccccc21)NC1CCN(Cc2ccccc2)CC1 | -5.5% | -11.1%
CC(N)(C(=O)O)c1cccc(OCc2cccc(Cl)c2)c1 (stereo unspecified) | 0.0%[7.34 µM] | i[7.34 µM]
CCCS(=O)(=O)N1CCCC(C(=O)NCCN(CC)c2ccccc2)C1 (stereo unspecified) | -23.6% | ·
O=C(NCc1ccc(Cl)c(Cl)c1)c1cc(C2CCCCN2C(=O)C2CCCCC2)on1 (stereo unspecified) | -15.0% | -12.6%
CCOc1ccccc1NC(=O)NNC(=O)c1ccc2ccccc2c1 | -22.5% | -27.2%
Cc1cc(C)n(C(=O)c2ccc(NC(=O)C3CC3)cc2)n1 | -4.7% | i
CC(C)(C)OC(=O)N(CCc1ccccc1)Cc1ccc(OCc2cccc(NC(=O)C3CCCC3)c2)cc1 | -11.3% | 0.0%
COC(=O)c1cc2occc2n1CC(=O)Nc1ccc(C)cc1C | 0.5% | -6.9%
Cc1cc(C)cc(Cn2cc(CN3CC(N4CCSCC4)CS3(=O)=O)nn2)c1 (stereo unspecified) | 7.2% | 1.4%
CC(C)CCn1c(=O)c2sccc2n2c(CCCC(=O)NCCc3ccccc3)nnc12 | -9.5% | -20.3%
CCCn1c(N)c(N(CCOC)C(=O)c2cc(S(=O)(=O)N3CCCCCC3)ccc2OC)c(=O)[nH]c1=O | -9.0% | -12.8%
CCN(CC)CCCNC(=O)CNC(=O)c1nn(-c2ccc(OC)cc2)c(=O)c2ccccc12 | -2.7% | -14.6%
COC(=O)c1sccc1NC(=O)c1ccccc1C(=O)O | 2.1%[7.34 µM] | -7.8%[7.34 µM]
O=C(Nc1ccccc1)c1ccc(S(=O)(=O)NCC2CCCO2)cc1 (stereo unspecified) | -16.2% | -4.4%
O=C(c1cccc(S(=O)(=O)N2CCCCC2)c1)N1CCN(c2ccccc2)CC1 | -9.2% | -3.5%
O=C(Nc1cccc(F)c1)C1CCN(S(=O)(=O)c2ccc3[nH]c4c(c3c2)CCCCC4)CC1 | ? | -23.8%
COc1ccc2c(c1)CC[C@@H]1[C@@H]2CC[C@]2(C)[C@@H](NCCCCCCN3C(=O)C=CC3=O)CC[C@@H]12 | -17.4% | i
CN1CCCC(OC(=O)c2cc(F)c(F)c(F)c2F)C1 (stereo unspecified) | -14.7% | -11.4%
O=C(CN(Cc1ccc(F)cc1)C(=O)CCC(=O)Nc1nccs1)NCc1ccccc1 | -5.5% | 1.1%
O=C(Nc1ccc2nc(-c3cccs3)c(-c3cccs3)nc2c1)N1CCCC1 | -13.7% | -4.6%
CCN(CC)C(=O)CCS(=O)(=O)c1cccc2nonc12 | -16.4% | -14.2%
CSc1oc(-c2ccccc2)nc1C(N)=O | -15.7% | -18.9%
O=C(NC1CC1)c1cccc(NC(=O)c2cc(S(=O)(=O)N3CCOCC3)ccc2Cl)c1 | -10.2% | -10.6%
COc1ccc(S(=O)(=O)Nc2ccc3c(c2)C(=O)N([C@H](C)CO)C[C@H](C)[C@@H](CN(C)C(=O)NC2CCCCC2)O3)cc1 | -1.2% | -2.5%
CCCOC(=O)c1c(C)oc2c1cc(NS(=O)(=O)c1ccc(OCC)cc1)c1ccccc12 | ? | ?
CCCc1cc(C(=O)Nc2ccc(C(C)=O)cc2)no1 | 4.0% | -10.0%
CSc1ncccc1C(=O)NC1CCCc2c1cnn2-c1ccc(C)c(C)c1 (stereo unspecified) | -15.0% | -21.8%
O=S(=O)(c1ccccc1)c1nc(-c2ccco2)oc1NCCCn1ccnc1 | -7.1% | ·
COCCn1c(C(=O)N2CCCC2)cc2c1C[C@H]1CN(C(=O)c3ccccc3)[C@@](Cc3ccc(F)cc3)(C(=O)OC)[C@@H]21 | ? | i
CC(C)C12CN3CC(C(C)C)(CN(C1)C3c1ccc([N+](=O)[O-])o1)C2=O (stereo unspecified) | -7.5% | i
O=C(Nc1cccc(C(F)(F)F)c1)N1CCC(c2nc(-c3ccc(F)cc3)no2)CC1 | ? | ?
CCOc1ccc(C2C(C(=O)c3ccco3)=C(O)C(=O)N2CCCn2ccnc2)cc1OCC (stereo unspecified) | -6.0% | i
COc1ccc(OC(=O)c2ccc3nsnc3c2)cc1 | -16.6% | ·
C[C@@H](NC(=O)[C@@H]1CCCN1C(=O)[C@@H]1CCCN1C(=O)OC(C)(C)C)c1ccccc1 | 2.9% | -3.5%
Cc1sc(NC(=O)c2ccccc2)c(C(=O)NC(C)C)c1C | -10.7% | i
O=C(O)c1ccc(NC(=O)c2ccc(Br)c(S(=O)(=O)N3CCCC3)c2)cc1 | -0.8% | 2.4%

Gathered by group, the entries above with a nitro group on carbon.
SMILES | VACV Venus inh | Vaccinia mCherry
CCn1cc(CNC(=O)c2ccc(Cl)c([N+](=O)[O-])c2)c(C)n1 | -6.4% | -15.0%
CC(C)C12CN3CC(C(C)C)(CN(C1)C3c1ccc([N+](=O)[O-])o1)C2=O (stereo unspecified) | -7.5% | i

New compounds follow.
SMILES | VACV Venus inh | Vaccinia mCherry
CCc1ccc(N2CC(C(=O)Nc3cccnc3)CC2=O)cc1 (stereo unspecified) | -23.5% | ·
O=S(=O)(NCCc1cn2ccccc2n1)c1ccc2c(c1)OCCO2 | -0.1% | -21.2%
COc1ccc(NC(=O)CSc2ncnc3c2cnn3CCc2ccccc2)cc1 | -20.0% | -20.8%[1.46 µM]
COc1ccc(OC)c(/C=C/c2ccccc2)c1 | -4.2% | -14.6%
COc1ccc(CCNC(=O)c2ccc(CSc3ccccc3)o2)cc1 | -6.0% | -6.7%
CC(=O)N1C(Nc2ccc(Cl)cc2)CCN1c1ccccc1 (stereo unspecified) | -11.2% | -9.1%
COc1ccc(N2CCN(CC(O)COc3ccc(C)cc3C)CC2)cc1 (stereo unspecified) | -0.9%&-15.9% | ?
CCC(C)(C)C1CCc2nc3ccccc3c(C(=O)OC(C)C(=O)Nc3c(C)n(C)n(-c4ccccc4)c3=O)c2C1 (stereo unspecified) | -18.6% | 1.6%
COc1ccc(C(=O)c2cn(-c3cccc(Br)c3)nc2C(C)=O)cc1 | -8.1%[7.34 µM] | -4.3%[7.34 µM]
O=C(Nc1cc(S(=O)(=O)Nc2ccccc2Cl)ccc1O)c1sc2cc(Cl)ccc2c1Cl | -17.5% | i
O=C(c1cccs1)N(Cc1cc2ccccc2[nH]c1=O)CC1CCCO1 (stereo unspecified) | -7.2% | -25.1%
CC(CC(=O)N1CCc2ccccc21)c1ccccc1 (stereo unspecified) | ? | ·
CCOc1ccccc1C1C2CCCCC2(O)CCN1C(=O)c1cccs1 (stereo unspecified) | -2.0% | -7.2%
Oc1ccc(Br)cc1C1C=C(c2ccc3c(c2)OCO3)NC(c2ccc(Cl)cc2)N1 (stereo unspecified) | -9.6% | 28.5%
COc1ccc(S(=O)(=O)N/N=c2\oc3c(OC)cccc3cc2S(=O)(=O)c2ccc(C)cc2)cc1OC | -19.2% | -8.3%
O=C(Cc1ccc(Br)cc1)N1CCN(c2ccccc2)CC1 | -10.3% | -13.7%
COC(=O)/C=C1\SC(=NC(=O)c2ccc(OC)cc2)NC1=O | -2.3% | -11.4%
COc1ccc(/C=C(\NC(=O)c2ccc(OC)cc2)C(=O)Nc2ccc(C(=O)O)cc2)cc1 | -2.8% | -1.5%
CN(NC1CC(=O)N(c2ccccc2)C1=O)c1ccccc1 (stereo unspecified) | -18.5% | -21.9%
CCn1c(/C=C/Nc2ccccc2)[n+](CC)c2cc(Cl)c(Cl)cc21 | -23.4% | -11.0%
CCOCCn1ccc2c(OCC(=O)NCc3ccc(C)cc3)cccc2c1=O | -12.9% | i
CN1CCN(C(=O)C2=C[C@@H](c3coc4ccccc4c3=O)C[C@@H](OCc3ccc(CO)cc3)O2)CC1 | -7.1% | i
C/C=C/c1ccc(OCCCCOc2ccccc2C(C)=O)c(OC)c1 | -1.5% | -8.4%
CCN1CCN(c2ncnc3c2cnn3-c2ccc(C)cc2)CC1 | -8.1% | -12.3%
O=C(Nc1cccnc1)C1Cc2c(-c3ccc4c(c3)OCO4)ccnc2O1 (stereo unspecified) | -26.5% | ?
Cc1ccc(S(=O)(=O)N2CCCCC2)cc1NC(=O)COC(=O)c1ccc2c(c1)OCO2 | 0.9% | -8.6%
CCOC(=O)c1ccccc1NC(=O)COC(=O)c1cc([N+](=O)[O-])ccc1N1CCOCC1 | -25.8% | i
COc1cc(OC)cc(C(=O)Nc2nnc(SCC(=O)NCC3CCCO3)s2)c1 (stereo unspecified) | -3.9% | -13.6%
CN1C[C@@H]2[C@@H]3C(=O)N(C)C(=O)[C@@H]3[C@](Cc3ccccc3)(C1=O)N2C(=O)c1ccc(Cl)cc1 | 3.0% | -8.7%
COc1ccc(NC(=O)CSc2nnc(-c3cccnc3)n2C)cc1 | -12.9% | -13.6%
COc1ccc(Br)c2oc(S)cc(=O)c12 | -11.3% | i
Cc1cc(C)cc(OCC(=O)NC(C)c2ccccc2)c1 (stereo unspecified) | -7.7% | -3.1%
Fc1ccc(Nc2ncnc3sc4c(c23)CCC4)cc1F | -11.7% | 1.7%
CC1CCN(C(=O)CCN2C(=O)/C(=C/c3cccs3)SC2=S)CC1 | -26.2% | ?
COc1cc(-c2nc(CN3CCN(c4ncccn4)CC3)c(C)o2)ccc1F | -6.1% | -10.1%
Cc1ccc2c(c1)N(C(=O)Nc1cccc3c1CCCC3)CC(C)O2 (stereo unspecified) | -12.5% | -5.1%
CCn1cc(C(=O)N2CCCC(C(=O)c3cccc(C(F)(F)F)c3)C2)cn1 (stereo unspecified) | -13.7% | i

Among those listed so far, these have a thiophene ring, fused or not.
SMILES | VACV Venus inh | Vaccinia mCherry
CN(c1ccccc1)S(=O)(=O)c1ccc(C(=O)NCc2cccs2)cc1 | -6.3% | -8.7%
Cn1cc(S(=O)(=O)NCc2cccs2)c(=O)n(C)c1=O | -1.7% | i
CC(C)CCn1c(=O)c2sccc2n2c(CCCC(=O)NCCc3ccccc3)nnc12 | -9.5% | -20.3%
COC(=O)c1sccc1NC(=O)c1ccccc1C(=O)O | 2.1%[7.34 µM] | -7.8%[7.34 µM]
O=C(Nc1ccc2nc(-c3cccs3)c(-c3cccs3)nc2c1)N1CCCC1 | -13.7% | -4.6%
Cc1sc(NC(=O)c2ccccc2)c(C(=O)NC(C)C)c1C | -10.7% | i
O=C(Nc1cc(S(=O)(=O)Nc2ccccc2Cl)ccc1O)c1sc2cc(Cl)ccc2c1Cl | -17.5% | i
O=C(c1cccs1)N(Cc1cc2ccccc2[nH]c1=O)CC1CCCO1 (stereo unspecified) | -7.2% | -25.1%
CCOc1ccccc1C1C2CCCCC2(O)CCN1C(=O)c1cccs1 (stereo unspecified) | -2.0% | -7.2%
Fc1ccc(Nc2ncnc3sc4c(c23)CCC4)cc1F | -11.7% | 1.7%
CC1CCN(C(=O)CCN2C(=O)/C(=C/c3cccs3)SC2=S)CC1 | -26.2% | ?
